# HIV TAR-Tat: HIV-1 TAR-Tat binding disruption; AID 1259389; actives 0.6% (n = 100,000); HIV-1 TAR RNA, Tat peptide displacement FRET; stronger effect = higher value; z-score (test concentration not listed);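 also: score is relative to mean and SD of negative controls; some compounds called inactive have numbers as strong as hits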
# CDC25B-CDK2 inh: human CDC25B-CDK2/CyclinA binding inhibition; P30305+P24941; HTRF CDC25B-CDK2/CyclinA binding, anti-His/anti-Flag; stronger effect = higher value; z-score (no concentration beside the values); actives 0.72% (n = 94,000); AID 1259370;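 also: score is relative to mean and SD of negative controls; strong numbers were not always called active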
# * marks the source's active call; other numbers are inactive results; / = no result given; & = joins results of further samples.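 The calls were made as follows: active = z-score from 3 up in half or more of its runs; inactive = the rest.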
SMILES	HIV TAR-Tat	CDC25B-CDK2 inh
Cc1ccc(CNS(=O)(=O)c2cc(-c3cc(C)no3)ccc2C)cc1	0.19	/
CCCCN(C)C(=O)Cn1nc(C)c2c(C)n(-c3ccccc3)nc2c1=O	0.41	/
CCSCCOC(=O)C1=C(C)NC2=C(C(=O)C(C(=O)OC)C(C)C2)C1c1ccc2ccccc2c1 (configuration not stated)	1.28	1.49
CNC(=S)NNC(=O)c1cc(C)on1	/	-1.85
CCCN1CCN(CC(O)c2ccc3cc[nH]c3c2)CC1 (configuration not stated)	-1.2	-1.83
CC1C(=O)N2CCCc3cc(S(=O)(=O)NCc4cccs4)cc1c32 (configuration not stated)	0.35	/
CCc1ccc(C(=O)CC2(O)C(=O)Nc3ccc(Br)cc32)cc1 (configuration not stated)	/	-1.67
COc1nc(NNC(=O)NS(=O)(=O)c2ccccc2Cl)nc(OC)n1	/	-0.71
O=C(N1CCCCC1)N1c2ccccc2CC(N2CCCCC2)c2ccccc21 (configuration not stated)	-0.24	-0.15
CC1CSc2ccc(S(=O)(=O)Nc3ccccc3Cl)cc2NC1=O (configuration not stated)	0.06	/
Cn1c(=O)c(C(=O)Nc2ccc(Cl)c(Cl)c2)c(O)c2ccccc21	/	-1.3
CCCCc1nc2sc3c(=O)[nH]cnc3c2c2c1CCCC2	-0.58	0.63
CNS(=O)(=O)c1cn(CC(=O)N2CCc3ccccc32)cc1S(=O)(=O)NC	-0.42	/
COC(=O)c1sc2ccccc2c1S(=O)(=O)Nc1ccc(OC)c(OC)c1	1.48	/
CC1CCC(NC(=O)C2(C)Cn3c(ccc3-c3ccco3)C(=O)N2CCCN2CCCCC2)CC1 (configuration not stated)	-2.79	/
COc1ccc(-c2cc3ccccc3n2CC(O)CNCCO)cc1 (configuration not stated)	/	-0.78
O=C1NC(=O)C(=Nc2c(O)[nH]c(=O)[nH]c2=O)C(=O)N1	/	1.97
CCCCc1n(CC(=O)c2ccccc2)c2ccccc2[n+]1C	2.35	-1.47
O=S1(=O)CCCCN1c1ccc(S(=O)(=O)N(Cc2ccccc2)c2ccccc2)cc1	2.83	/
CCOc1cc(C2Nc3ccc(C(=O)c4ccccc4)cc3NC3=C2C(=O)CCC3)ccc1O (configuration not stated)	-1.04	-2.79
CN(CCCNC(=O)c1nn(C)c2c1CS(=O)(=O)c1ccccc1-2)Cc1ccccc1	0.94	-1.05
CSc1ccc(C2C3=C(CCCC3=O)Nc3ccccc3N2C(C)=O)cc1 (configuration not stated)	1.07	-1.55
CNS(=O)(=O)c1cn(CC(=O)N2CCN(C3CCCCC3)CC2)cc1S(=O)(=O)NC	0.52	/
Cc1ccc2nc3c(cc2c1)CCN3C(=O)c1ccc(F)cc1	-1.12	-0.61
Cc1ccc(-c2noc(-c3nnn(-c4ccc(Br)cc4F)c3N)n2)cc1	0.07	/
COc1ccc(Br)cc1C1NC(=O)CCC1[N+](=O)[O-] (configuration not stated)	2.44	/
O=C(Cn1ncc2c3ccccc3n(Cc3ccc(F)cc3)c2c1=O)N1CCCC1	1.6	-1.5
CCCS(=O)(=O)N1CCCc2ccc(NS(=O)(=O)c3ccc(C(C)(C)C)cc3)cc21	1.77	/
CCS(=O)(=O)c1nc(S(=O)(=O)c2ccc(C)cc2)c(N2CCC(C)CC2)s1	0.24	-0.5
Cc1c(CNCc2cccs2)c(C(=O)O)c(C)n1-c1ccccc1	0.89	/

# Some of the entries so far, field by field:
CC1CSc2ccc(S(=O)(=O)Nc3ccccc3Cl)cc2NC1=O (configuration not stated)
  HIV TAR-Tat: 0.06 | CDC25B-CDK2 inh: /

Cn1c(=O)c(C(=O)Nc2ccc(Cl)c(Cl)c2)c(O)c2ccccc21
  HIV TAR-Tat: / | CDC25B-CDK2 inh: -1.3

CCCCc1nc2sc3c(=O)[nH]cnc3c2c2c1CCCC2
  HIV TAR-Tat: -0.58 | CDC25B-CDK2 inh: 0.63

CNS(=O)(=O)c1cn(CC(=O)N2CCc3ccccc32)cc1S(=O)(=O)NC
  HIV TAR-Tat: -0.42 | CDC25B-CDK2 inh: /

# (list continues)
SMILES	HIV TAR-Tat	CDC25B-CDK2 inh
CCOCCCNc1c(-c2ccccc2)nc2ccc(Br)cn12	/	1.45
CCc1ccc(CC)c(S(=O)(=O)Nc2ccc3oc(=O)sc3c2)c1	0.68	-1.9
CCOC(=O)C1=NN(c2ccc(OC)cc2)C2C(=O)N(c3ccccc3)C(=O)C12 (configuration not stated)	2.14	-0.1
O=[N+]([O-])c1ccc2c(c1)ncn2-c1ccccc1	/	-1.24
Cc1cc(C)n(Cc2c(C(=O)NCCN3CCCCC3)noc2C)n1	-1.02	/
CN1c2cc(Cl)ccc2-c2nc(SCC(=O)Nc3ccc(F)cc3F)ncc2S1(=O)=O	0.12	/
CC1CC(C)CN(S(=O)(=O)c2ccc3c(c2)oc(=O)n3CC(=O)NC2CCCCC2C)C1 (configuration not stated)	0.87	-1.15
O=C1C2C(c3ccc(F)cc3)OC3(C(=O)c4ccccc4C3=O)C2C(=O)N1Cc1ccccc1 (configuration not stated)	-1.42	-1.94
CCC1CN(C(=O)Nc2ccc3c(c2)OCCO3)c2cc(Cl)ccc2O1 (configuration not stated)	1.96	/
CCOCCCNC(=O)C1CCN(c2nnc(-n3cccc3)s2)CC1	0.86	0.48
c1ccc2c(c1)nc(NCc1ccc3c(c1)OCO3)n2CCN1CCOCC1	0.63	-0.88
CCc1nc2nc(C)c(NS(=O)(=O)c3ccc(C)cc3)c(=O)n2[nH]1	0.35	-1.73
Fc1ccc(N2CCN(c3nc4ccccc4c4nncn34)CC2)cc1	2.2	/
Cc1cc2nc(SCC(=O)Nc3ccc4c(c3)OCO4)[nH]c2cc1C	0.25	-0.04
CCSc1nc2n(n1)C(c1ccc(Cl)cc1)C1=C(CCCC1=O)N2 (configuration not stated)	-0.1	-0.95
Cc1cc(S(=O)(=O)[C@H]2CS(=O)(=O)C[C@@H]2N2CCCC2)ccc1F	1.07	-1
CCOC(=O)c1c(NC(=O)Cn2nc([N+](=O)[O-])c(Br)c2C)sc2c1CCC2	2.58	/
CCc1ccccc1N1C(=O)N(Cc2cc(=O)n3ccccc3n2)c2ccccc2S1(=O)=O	1.81	/
Cc1ccc(Cl)cc1-n1ncc2c(Nc3ccc4c(c3)OCCO4)ncnc21	1.69	/
COc1cccc(N2CN(Cc3ccco3)CNC2=S)c1	/	-1.49
Cc1cc(Cl)ccc1-n1nnnc1SCc1nc2ccccc2[nH]1	0.42	2.08
CCOC(=O)c1sc2ccccc2c1S(=O)(=O)Nc1ccc(Br)cc1	1.25	/
CSc1nc(-c2ccc(Cl)cc2)c(C#N)c(=O)[nH]1	-0.41	0.29
CCCc1cc(=O)n2nc(N3CCC(C(=O)NCCN4CCOCC4)CC3)sc2n1	3.72	-0.61
CCc1c(-c2ccccc2)nc(N)c(C#N)c1-c1ccc(C)o1	0.34	-1
COc1ccc(Nc2nc(N)c3cc(OC)c(OC)cc3n2)cc1Cl	2.08	8.3
Cc1cc(OC(C)C(=O)N(Cc2ccco2)C2CCS(=O)(=O)C2)ccc1Cl (configuration not stated)	0.72	-1.89
Cc1nn(CC(=O)N2CCN(C)CC2)c(=O)c2c1sc1ccccc12	3.19	-3.21
Cc1nc(Nc2ncc3c(n2)CC(c2ccc(F)cc2)CC3=O)nc2c(C)cccc12 (configuration not stated)	-2.23	-0.83
CN(CCNC(=O)C1CCCN(c2ncnc3c2nc2n3CCCCC2)C1)C1CCCCC1 (configuration not stated)	0.69	/

# In a second layout: entries from further up.
> Cc1cc(S(=O)(=O)[C@H]2CS(=O)(=O)C[C@@H]2N2CCCC2)ccc1F
  HIV TAR-Tat: 1.07	CDC25B-CDK2 inh: -1
> CCOC(=O)c1c(NC(=O)Cn2nc([N+](=O)[O-])c(Br)c2C)sc2c1CCC2
  HIV TAR-Tat: 2.58	CDC25B-CDK2 inh: /

# Additional records:
SMILES	HIV TAR-Tat	CDC25B-CDK2 inh
COc1ccc(C(C)=O)cc1CSc1nsc(SCc2cc(C(C)=O)ccc2OC)n1	/	-1.89
Cc1c(C2CCN(S(C)(=O)=O)CC2)c2ccccc2n1Cc1cccc(Cl)c1	0.95	/
O=S1(=O)N=C(Nc2cc(C(F)(F)F)ccc2Cl)c2ccccc21	/	-0.18
c1ccc2c(c1)c(NCc1ccncc1)nn1cnnc21	-2.2	-0.2
O=C(c1csc(-c2ccc(Cl)cc2)c1)N1CCCCC1	/	-1.91
CCC(C(=O)NCCN1CCOCC1)n1c2ccccc2c2nc(=O)cc(C)n21 (configuration not stated)	-0.28	-1.6
CCC(CC)C(=O)N1N=C(c2ccc(NS(C)(=O)=O)cc2)CC1c1ccco1 (configuration not stated)	-0.72	-0.74
CCOc1ccc(Nc2c(CC)c(C)nc3ncnn23)cc1	0.71	/
CCOC(=O)c1sc(N2C(=O)c3oc4ccccc4c(=O)c3C2c2ccccc2)nc1C (configuration not stated)	-0.62	1.01
COc1ccc(NC(=O)CCC(=O)Nc2ccc3nc(N4CCOCC4)cc(C)c3c2)c(OC)c1	/	0.58
CCC(C(=O)NCCN(C)C)n1nc(C)c2sc3ccccc3c2c1=O (configuration not stated)	1.73	-2.33
CCOC(=O)N1CCN(C(=O)C2CCCN(c3ncnc4c3nc3n4CCCCC3)C2)CC1 (configuration not stated)	0.14	-0.58
CC(=O)N1CCc2cc(Br)cc(S(=O)(=O)N3CCN(c4ccc(Cl)cc4)CC3)c21	1.66	/
O=[N+]([O-])c1cccc2cn[nH]c12	0.68&-1.84	-0.18
CC(=O)Oc1c(Br)cc(Cl)cc1C1=NN(C(C)=O)C(c2ccncc2)O1 (configuration not stated)	0.52	/
CCOC(=O)c1c(C)oc2ccc(OCC(N)=O)cc12	1.25	-1.39
CCSc1ncc2c(=O)n(CC(=O)NC3CCCC3)cnc2n1	0.72	/
CC(C)CNC(=O)C1=CC(c2ccc3c(c2)OCO3)=NS(=O)(=O)N1C	0.43	-1.4
C=CCn1c(NCc2cccs2)nc2ccccc21	3.37	-2.32
CNS(=O)(=O)c1cn(CC(=O)N2CCN(C)CC2)cc1S(=O)(=O)NC	0.69	/
CCc1ccc(S(=O)(=O)N2CCN(c3nc4ccccc4n3C)CC2)cc1	0.91	-1.21
Cc1cc(NC(=O)C(C)(C)C)cc(-c2nc3ncccc3o2)c1O	0.35	1.7
O=C(O)c1ccc(N2C(=O)CCC2=O)cc1	1.52	-0.34
COC(=O)c1sccc1NC(=O)CC1C(=O)NCCN1C(=O)Nc1cc(Cl)ccc1OC (configuration not stated)	/	-2.32
Cc1ccc(C(=O)CSc2nnc(-c3ccccc3)o2)cc1	0.86	0.32
N#CC1=C2SCN(Cc3ccccc3)CN2C(=O)CC1c1cccc(F)c1 (configuration not stated)	1.06	4.89*
CC1CCc2nn(CC(=O)N3CCc4ccccc43)cc2C1 (configuration not stated)	0.69	1.26
N#Cc1nc(/C=C/c2ccc(F)cc2)oc1NCc1ccc2c(c1)OCO2	1.56	0.86
CC(CC(=O)NC1CCCc2ccccc21)S(=O)(=O)c1ccc2c(c1)NC(=O)CO2 (configuration not stated)	0.53	/
O=C1c2cccc3cccc(c23)C(=O)N1c1cccc(Cl)c1	0.86	-2.02
O=C(c1ccc2nc(N3CCOCC3)sc2c1)N1CCCCC1	0.35	-1.55
O=C(CSc1nnc(-c2cccs2)o1)N1CCOCC1	2.78	-0.85
COc1ccc(OCC(=O)Nc2nn3c(-c4cccs4)nnc3s2)cc1	1.22	0.04
Cc1cc(NC(=O)Nc2cn(C)c(=O)c3ccccc23)no1	-0.24	/
CCCCCCCOC(=O)C1=C(C)Nc2nnnn2C1c1ccc(F)cc1 (configuration not stated)	0.94	-0.07
O=c1c2cn(Cc3ccc(Cl)cc3)c3ccccc3c-2nn1Cc1ccccc1	0.28	/
COc1ccc2c(=O)c(-c3ccccn3)coc2c1	/	-1.64
CCc1ccc2nc(Nc3nc(COC)cc(=O)[nH]3)nc(C)c2c1	/	0.44
Cc1ccc(S(=O)(=O)c2nc(S(=O)(=O)c3ccc(C)cc3)c(NCCN(C)C)s2)cc1	1.04	-1.86
Cc1cc(NS(=O)(=O)c2cc(Cl)sc2Cl)no1	/	-1.71
O=C1NN=C2CC34CCC12CC3=NNC4=O	/	-2.79
COCCn1c(N2CCCCC2)nc2c1c(=O)[nH]c(=O)n2C	/	-1.05
Cn1c(=O)c2c(nc(Sc3ccccc3NC(=O)c3ccco3)n2C)n(C)c1=O	1.04	-1.17
COc1ccc(C2=NN(C(C)=O)C(c3cncc(Br)c3)O2)c(OC)c1 (configuration not stated)	0.2	/
O=C1CCSc2ccc(S(=O)(=O)N3CCN(c4cccc(Cl)c4)CC3)cc2N1	-2.05	/
CCOC(=O)c1c(NC(=O)CCC(=O)O)sc2c1CCC(C(C)(C)C)C2 (configuration not stated)	0.61	-2.67
Cn1nnc2c(NCc3cccs3)ncnc21	2.36	/
CC(C)CCNC(=O)CCc1nc2sc3c(c2c(=O)[nH]1)CCCCC3	1.25	/
Cn1c(=O)c2[nH]c(CN3CCOCC3)nc2n(C)c1=O	-1.57	-1.1
COc1cccc(NC(=O)CCSc2nnc3ccc4ccccc4n23)c1	/	-1.94
COc1ccc(-c2nc3c(c(=O)[nH]2)Cc2cc(Br)cc(OC)c2O3)cc1	1.71	-2.44
COc1ccc(S(=O)(=O)N2CCc3cc4ccc(C)cc4nc32)c(OC)c1	0.7	1.94
